Screening results deposited in PubChem BioAssay by several laboratories.
CSC inhib – cancer stem cell inhibition; AID 2717; actives 1.1% (n = 300,000); inhibition, % at 7.5 µM; cancer stem cell-like cells viability, luminescence;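 active = mean at 75% or more and at least half the replicates too; inconclusive = mean and replicates disagree; tested in HMLE shEcad cells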;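 note: 0% = median of negative and 100% = median of positive control wells; the first replicate is given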
PABP FP inh – blocks human PABP binding to poly(A) RNA | P11940 | fluorescence polarization | inhibition, % at 35 µM | actives 1% (n = 290,000) | AID 2014;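 active = 50% or more with normal probe brightness, or confirmed in later tests; inconclusive = above 50% with abnormal brightness, or retests that disagree; inactive = below 50% or failed in later tests; about a fifth of its hits are not listed in these tables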;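 note: calls also rest on retests at 20 µM and on dose response follow-up; controls were probe without protein and protein plus probe with vehicle; some compounds called inactive have numbers as strong as hits; many hits fall short of the cut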
eIF4H FP inh – inhibitors of RNA binding by human eIF4H. Q15056. eIF4H fluorescence polarization binding assay. inhibition, % at 35 µM. actives 0.94% (n = 290,000). AID 2012;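 active = 50% or more with normal probe brightness, or confirmed in later tests; inconclusive = above 50% with abnormal brightness, or retests that disagree; inactive = below 50% or failed in later tests; about a fifth of its hits are not listed in these tables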;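 note: calls also rest on retests at 20 µM and on dose response follow-up; 0% = protein and probe with vehicle and 100% = probe without protein; strong numbers were not always called active; many hits fall short of the cut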
Rce1 inh – blocks yeast Ras-converting enzyme. calls only. yeast membranes, quenched prenylated peptide cleavage fluorescence. Q03530. actives 0.27% (n = 290,000);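 active = fall in fluorescence gain of 50% or more versus controls, with final raw signal at or below 3038400; inconclusive = same 50% fall but final raw signal above 3038400; inactive = fall in fluorescence gain under 50%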;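 note: plate controls were neutral control wells for no effect and wells lacking membranes for full effect; tested at 10 µM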
Target sequence (Q03530 whole entry, looked up): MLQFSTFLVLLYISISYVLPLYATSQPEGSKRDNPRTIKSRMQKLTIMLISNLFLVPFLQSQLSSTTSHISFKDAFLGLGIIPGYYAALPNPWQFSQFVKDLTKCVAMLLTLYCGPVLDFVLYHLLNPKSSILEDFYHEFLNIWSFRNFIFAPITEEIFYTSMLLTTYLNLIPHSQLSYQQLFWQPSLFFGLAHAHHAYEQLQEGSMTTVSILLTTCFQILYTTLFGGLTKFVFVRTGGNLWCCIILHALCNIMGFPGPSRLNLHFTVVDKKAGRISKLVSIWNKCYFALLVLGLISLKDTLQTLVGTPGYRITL
MT1-MMP act inh – blocks activation of human MT1-MMP. HT1080 RFP-PRO-GFP cells, GFP/RFP ratio fluorescence, overnight; percent of plate control window, DMSO zero. GFP/RFP ratio change, % at 20 µM. actives 0.061% (n = 360,000);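 active = GFP/RFP ratio change of at least 30% with cell ATP level not reduced by more than half and red fluorescence within 50% of control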; note: strong numbers were not always called active
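Material: RFP-PRO-GFP reporter HT1080 cells. Dosing: single-point 20 µM compound, 1% DMSO. Controls: DMSO and RFP-L50D-GFP cell wells. Timing: cells overnight before dosing, compound overnight, 37 °C, 5% CO2. Measure: GFP/RFP fluorescence ratio.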
Env fusion inh – blocks HIV Env-driven cell-cell fusion; AID 651610; HeLa-JRFL Env/CEM21 cell fusion, luciferase; actives 1.1% (n = 360,000); inhibition, % at 12.3 µM;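 active = mean replicate inhibition score of at least 50 and every replicate individually at or above 50; inconclusive = only one of the two criteria met; inactive = mean below 50 and not all replicates reaching 50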;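 note: 0% = plate neutral controls and 100% = maraviroc near 300 nM; one replicate is shown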
Yeast UUG start – yeast start codon fidelity modulation. S. cerevisiae UUG-firefly luciferase reporter, luminescence/redox ratio. activity score, % at 18.7 µM. actives 0.13% (n = 350,000). AID 602363;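 active = replicate mean at a twofold rise or more, about +100% in these data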;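 note: firefly luciferase made from a UUG start codon reports start codon fidelity; reporter light over untreated wells divided by growth signal over untreated wells; some hits fall short of that in this replicate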
eIF4H FP inh retest – recorded beside eIF4H FP inh, whose call it bears; inhibition, %; compound at 20 µM; confirmation average;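 mean of two retest wells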
PABP FP inh retest – recorded beside PABP FP inh, whose call it bears; inhibition, %; compound at 20 µM; confirmation repeats;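 mean of two retest wells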
MT1-MMP act inh RFP – recorded beside MT1-MMP act inh, whose call it bears; RFP signal change, %; measured here: RFP expression control read;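 0 = vehicle wells; hits needed this value within 50% of zero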
Numbers without * were called inactive; i = inactive; ? = inconclusive; · = not tested or not shown. Rows were taken by chance. Share with any hit: about 2.9%.

SMILES | CSC inhib | PABP FP inh | eIF4H FP inh | Rce1 inh | MT1-MMP act inh | MT1-MMP act inh RFP | Env fusion inh | Yeast UUG start | others
O=C(CCNC(=O)c1ccc([N+](=O)[O-])cc1)N/N=C/c1ccc(F)cc1 | -7 | -14 | -6 | i | 2 | -2 | -8 | -11
Cc1ccc(C(=O)NC(=S)NNC(=O)COc2ccc([N+](=O)[O-])cc2)cc1 | 6 | 14 | 27 | i | 1 | 3 | -14 | -21
CCC(NC(=O)c1cc(COc2cncc(Cl)c2)on1)c1ccc(C)cc1 (stereo not given) | -7 | 2 | -7 | i | 2 | -11 | 6 | 5
CN(C)c1cccc(C(=O)OCC(=O)N(Cc2ccccc2)C2CCS(=O)(=O)C2)c1 (stereo not given) | -29 | -6 | -7 | i | 2 | -1 | -4 | 3
CCCN(CC(=O)Nc1ccc(C)cc1Br)CC(=O)Nc1ccc(F)c(F)c1F | · | 9 | 1 | i | -3 | -8 | 2 | 8
CCOC(=O)C1=C(c2ccccc2)OC(N)=C(C#N)C1C1CCCCC1 (stereo not given) | -4 | 16 | -1 | i | -2 | -1 | · | ·
COCCn1c(=O)[nH]c2cc(C(=O)NCCN3CCN(c4cccc(Cl)c4)CC3)ccc2c1=O | -2 | -4 | 2 | · | 4 | -7 | ? | -6
CCn1c2ccccc2c2cc(NC(=O)COC(=O)c3ccccc3O)ccc21 | 3 | -1 | 7 | i | 1 | 2 | -45 | ·
Brc1cccc(C2Nc3cccc4cccc(c34)N2)c1 | -13 | 19 | 46 | i | -5 | 4 | 3 | 2
Cn1c(=O)n(C)c2cc(NC(=O)c3cccc([N+](=O)[O-])c3)c(Br)cc21 | · | 6 | -4 | i | 14 | 9 | 7 | ·
CC(=O)Nc1ccc(C(=O)NN2C(=O)c3ccccc3C2=O)cc1 | -14 | 0 | -6 | i | 1 | 1 | 5 | -11
CCOC(=O)C1(Cc2ccccc2)CCN(Cc2cnn(-c3ccccc3)c2)CC1 | 33 | -7 | -9 | · | 0 | -1 | 3 | ·
O=C(Nc1ccc(O)c(C(=O)O)c1)c1cccc(NC(=O)c2ccco2)c1 | -3 | 14 | 11 | i | -1 | 1 | -1 | 16
CCOc1ccc(-n2c(-c3ccccc3)c[nH]c2=S)cc1 | -3 | -1 | -7 | i | 3 | 1 | -5 | -4
Cc1cccc(C)c1OCc1n[nH]c(=S)n1N | · | -2 | -10 | i | 3 | 3 | 3 | ·
CCCCCCOc1ccc(C(=O)NCCCn2ccnc2)cc1 | -1 | 8 | -2 | i | 1 | -3 | 15 | ·
COc1ccccc1Oc1ncnc2c1cnn2-c1ccccc1 | -10 | -1 | -12 | i | -1 | -2 | -21 | -10
Cc1nn(CC(C)C)c(=S)[nH]c1=O | -1 | -5 | -2 | i | 4 | 2 | 3 | -7
O=C(CNC(=O)Cc1ccccc1)NCC(=O)OCc1ccccc1 | 3 | -3 | 8 | i | 1 | -1 | · | -10
CC(C)c1nnc(NC(=O)Cc2cccs2)s1 | -19 | -12 | 7 | i | 4 | 6 | -7 | -16
C#CCOCCOCCOCCNc1nc(N2CCN(C(=O)[C@H](CCC(=O)O)n3cc(C(N)CO)nn3)CC2)nc(N2CCN(C(=O)[C@H](CCCCN)n3cc(C(N)[C@H](C)CC)nn3)CC2)n1 (stereo not given in full) | · | 24 | 40 | i | · | · | · | ·
COc1ccc(CNC(=O)C2CCCN2S(=O)(=O)c2ccccc2)cc1 (stereo not given) | 4 | -2 | -3 | i | -3 | -1 | · | 6
COc1cccc(S(=O)(=O)Nc2ccc(C(=O)Nc3ccncc3)cc2)c1 | 63 | 5 | -3 | i | 2 | -4 | 20 | ·
COc1ccc(C)cc1NC(=O)CN1CCCN(S(=O)(=O)c2ccc(Br)cc2)CC1 | 29 | 3 | -1 | i | -4 | -3 | 25 | 4
CCOC(=O)c1c(C(=O)OCC)c(C)n(N2C(=O)CSC2=S)c1C | -16 | 22 | 12 | i | -4 | 19 | · | -5

Other records:
SMILES | CSC inhib | PABP FP inh | eIF4H FP inh | Rce1 inh | MT1-MMP act inh | MT1-MMP act inh RFP | Env fusion inh | Yeast UUG start | others
O=C(Nc1cccc(C(F)(F)F)c1)c1cccc(NS(=O)(=O)c2ccc(Br)c(C(=O)O)c2)c1 | -6 | -11 | 10 | i | -1 | 4 | -4 | ·
Cc1cc(C)cc(C(=O)Nc2ccc(NC(=O)Cc3ccccc3)cc2)c1 | 9 | 0 | 3 | i | 4 | 2 | 15 | -12
COCCn1c(-c2ccc(OC)cc2)nc2oc3cc(OC)ccc3c(=O)c2c1=O | -3 | 4 | -4 | i | 9 | 1 | · | -5
O=C(Cc1ccccc1)Nc1ccc(CN2CCOCC2)cc1 | -8 | 12 | 10 | i | -7 | 0 | -23 | -17
COc1ccc(CNC(=O)CSc2nc(SC)ns2)cc1 | -6 | -3 | 20 | i | -5 | -3 | 10 | -7
CCc1ccc(NC(=S)NC2CC3CCC(C2)N3Cc2ccco2)cc1 (stereo not given) | -21 | -2 | 11 | i | 4 | 1 | -14 | -27
CCOC(=O)C1=C(O)/C(=C/c2ccc(OCC(=O)O)c(OC)c2)SC1=Nc1ccc(OCC)cc1 | -7 | 1 | 2 | i | 6 | 3 | 25 | ·
O=C(Nc1ccccc1)/C(=C/c1cccc(Br)c1)NC(=O)c1ccco1 | -4 | 5 | 9 | i | -7 | -3 | 7 | ·
Cc1onc(-c2ccccc2)c1C(=O)N/N=C/c1ccc([N+](=O)[O-])c(O)c1 | · | 4 | -3 | i | 5 | 0 | -21 | -9
N#CCSc1nnc(Nc2ccccc2)s1 | -1 | -2 | 5 | i | 0 | 5 | 4 | -10
O=C(CSc1nnc(-c2ccco2)o1)NCCc1ccccc1 | -4 | · | · | · | 2 | 1 | · | -7
S=c1[nH]nc(-c2cccnc2)n1Cc1ccccc1 | -11 | -6 | 4 | i | 3 | 7 | -16 | ·
Cc1cc(C)cc(OCC(=O)NC2=NCCS2)c1 | -4 | 6 | 2 | i | 6 | 2 | -207 | ·
CCN(CC)c1ccc(NC(=O)CCc2nnc3ccc(N4CCCCC4)nn23)c(C)c1 | · | -5 | -8 | i | 3 | 1 | -50 | -20
CCCCc1c(C)nc(N2CCCC2)[nH]c1=O | -10 | -2 | 65* | i | 1 | -2 | 7 | · | eIF4H FP inh retest=78*;PABP FP inh retest=27
COc1cccc(C(=O)Nc2cc([N+](=O)[O-])ccc2N2CCN(C)CC2)c1 | · | -4 | 4 | i | -5 | -4 | · | -19
Cc1nc(SCC(=O)Nc2ccc(CN3CCCC3)cc2)c2c(C)c(C)sc2n1 | · | · | · | · | 1 | 3 | -21 | -2
OC(c1cccc(Cl)c1)c1ncc(-c2cccc3ccccc23)[nH]1 (stereo not given) | · | · | · | · | 0 | 2 | -2 | -14
CN(Cc1ccccc1F)C(=O)C1CCCN(C(=O)c2ccc(Cl)cc2)C1 (stereo not given) | · | · | · | · | -1 | 0 | 24 | 9
O=C(COC(=O)c1ccncc1)Nc1cccc2ccccc12 | -6 | · | · | · | -5 | 3 | -3 | -1
O=C(Nc1cccc(C(=O)O)c1)/C(=C\c1ccc2c(c1)OCO2)NC(=O)c1ccccc1Br | · | · | · | · | -5 | 6 | -16 | -1
CCOc1ccc(CNc2ncc(-c3ccccc3)n2C)cc1 | 6 | 0 | 0 | i | 2 | 1 | 3 | -16
O=S(=O)(c1cnc[nH]1)N1CCN(c2ccccc2)CC1 | 1 | -5 | -8 | i | -5 | 2 | -5 | -8
CNC(=O)c1nnn(-c2ccccc2)c1C(=O)NC | -13 | -1 | -6 | i | -3 | 3 | · | -9
O=C(NCC(O)COc1ccc([N+](=O)[O-])cc1)c1ccccc1 (stereo not given) | -5 | -2 | 5 | i | -6 | -1 | -9 | 6

Continuation:
SMILES | CSC inhib | PABP FP inh | eIF4H FP inh | Rce1 inh | MT1-MMP act inh | MT1-MMP act inh RFP | Env fusion inh | Yeast UUG start | others
Cn1c(SCc2ccc(Cl)cc2)nnc1C1CC1 | 0 | -2 | -1 | i | 1 | 5 | 0 | ·
O=C(O)c1ccc(C2SCC(=O)N2Cc2ccco2)cc1 (stereo not given) | -10 | -9 | -3 | i | 2 | 8 | 5 | -3
CCOc1ccc(NS(=O)(=O)c2ccc(Cl)c(C(=O)N(C)Cc3cccnc3)c2)cc1 | · | · | · | · | 6 | -4 | 4 | -6
COC(=O)c1cc(C(=O)OCC(=O)Nc2cc(C)on2)cc([N+](=O)[O-])c1 | -11 | -1 | 17 | · | 6 | 2 | -4 | -14
Cn1nc(-c2ccc(C(=O)N3CCN(Cc4ccccc4)CC3)cc2)c2ccccc2c1=O | -4 | -8 | -12 | i | 4 | -8 | ? | -8
COc1cccc(CN(C)C(=O)c2cc(-c3cccs3)nc3ccccc23)c1 | 4 | -8 | -9 | i | -2 | -1 | 7 | 12
CN1CCN(C(=O)C2=C[C@H](C(C)(C)C)C[C@H](OCCCCO)O2)CC1 | 8 | -6 | 5 | i | 5 | 4 | 2 | -18
CCc1ccc(NS(=O)(=O)c2ccc3[nH]cc(C(=O)N4CCc5ccccc54)c(=O)c3c2)cc1 | -7 | 5 | 28 | i | -1 | -2 | · | ·
Cc1onc(-c2ccccc2)c1C(=O)N1CCN(S(=O)(=O)c2ccccc2C(F)(F)F)CC1 | -13 | -7 | -4 | i | -3 | 0 | 3 | -10
Oc1ccccc1CNCCCNCc1ccccc1O | 8 | -10 | -8 | i | 10 | 8 | -35 | -6
Cc1ccc([N+](=O)[O-])cc1NC(=O)CSc1nnc(C)n1CC1CCCO1 (stereo not given) | · | 4 | -4 | i | 1 | 0 | -3 | -18
Cn1c(=O)c2c(nc(OCc3cccnc3)n2Cc2ccccc2)n(C)c1=O | · | 0 | -18 | i | 7 | 1 | · | 28
Cc1cccc(Nc2nc(N)nc(CN3CCN(c4ccccc4)CC3)n2)c1 | 13 | 1 | -6 | i | 2 | -1 | -5 | -18
Cc1cc(C)n(NC(=S)NC2CCCC2)c(=O)c1C#N | -7 | -2 | -2 | i | 2 | 5 | 13 | -21
CCC1=NN2C(=N)/C(=C\c3cccn3-c3ccc(C)cc3C)C(=O)N=C2S1 | 50 | 3 | -4 | i | -5 | -4 | 23 | ·
CN1CCN(C(=O)C(=O)c2cn(CC(=O)N3CCOCC3)c3ccccc23)CC1 | · | · | · | · | -2 | -1 | -10 | -2
Cc1ccc(OCc2ccc(C(=O)Nc3cc(C)on3)o2)c([N+](=O)[O-])c1 | -1 | 1 | -7 | i | -1 | -4 | 6 | -13
Cc1cc(C(=O)O[C@H]2[C@H](C)NS(=O)(=O)[C@H]3C[C@@H]4C=C[C@]23O4)cc([N+](=O)[O-])c1 | -10 | · | · | · | 4 | 6 | -15 | 6
Cc1cc(NC(=O)CCCC(=O)OCC(F)(F)C(F)F)cc(C)c1C(=O)O | -5 | -4 | -1 | i | 2 | 7 | -8 | -10
CN1CN(C)c2ccc([N+](=O)[O-])c3cccc1c23 | 10 | 11 | 2 | i | -3 | 2 | 1 | -31
COc1ccc(OC)c(NC(=O)N[C@@H](Cc2ccccc2)C(=O)O)c1 | -12 | 11 | 7 | i | 1 | 0 | 9 | 9
CCc1cccc(CC)c1NC(=O)COC(=O)CCc1cc(OC)c(OC)c(OC)c1 | 13 | 0 | -5 | i | 0 | 8 | -10 | ·
